Insulin prom inh – TRM-6 insulin promoter activity inhibition; TRM-6 cells (human fetal islet line), insulin promoter-eGFP reporter, imaging; reporter expression induced with tamoxifen; inhibition, % at 2 µM; hit rate 0.9% among 130,000; AID 1273;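 active means inhibition above the mean plus 3 SD, with well images judged a real hit on visual review, cut at about 60% in these data, passing the limit was not always enough; inconclusive means inhibition over the cutoff but images rejected on review; inactive means inhibition not above the cutoff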
GALR2 agonist – activates the human galanin receptor 2 | GALR2-expressing cells, agonist activation read-out | activation, %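 (tested at 5 µM)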 | hit rate 0.48% among 140,000;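 active means above mean plus 3 SD of all compounds, about 5% in these data, not always enough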;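 further: 0% = vehicle buffer wells and 100% = reference agonist at full effect; tested in CHO reporter cells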
Target sequence (O43603 whole entry, looked up): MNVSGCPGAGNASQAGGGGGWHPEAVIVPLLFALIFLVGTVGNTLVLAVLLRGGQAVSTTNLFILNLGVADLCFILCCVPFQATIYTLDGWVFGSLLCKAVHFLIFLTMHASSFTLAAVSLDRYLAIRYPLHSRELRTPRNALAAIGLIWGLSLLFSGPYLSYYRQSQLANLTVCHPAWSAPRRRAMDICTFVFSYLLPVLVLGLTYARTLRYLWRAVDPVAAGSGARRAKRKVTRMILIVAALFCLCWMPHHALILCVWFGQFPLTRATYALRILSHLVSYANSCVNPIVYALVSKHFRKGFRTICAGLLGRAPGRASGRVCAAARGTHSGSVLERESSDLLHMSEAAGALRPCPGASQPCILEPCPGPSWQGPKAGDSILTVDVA
HSV replic up – HSV replication enhancement | hit rate 0.005% among 220,000 | AID 1956 | HSV replication augmentation in cells, fold increase | maximum fold increase;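 active means peak rise of 1.5-fold or more in the series; inconclusive means self-fluorescent or not available for retest; tested in PC3 cells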;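 further: first round at 10 µM; read as green reporter fluorescence; hits show the peak of a series up to 25 µM; 1 = signal of infected wells without compound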
PKD1 inh – blocks activity of human protein kinase D1; PKD1 kinase fluorescence polarization assay; hit rate 0.056% among 200,000; Q15139; inhibition, %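 (about 10 µM by stock and volumes)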;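 active means inhibition of 50% or more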;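 further: controls were vehicle for no effect and a reference inhibitor for full effect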
RGS16-Gao – regulators of human RGS16-Galphao interaction. O15492+P09471. bead-based flow cytometry RGS16-Galphao binding, fluorescence; actives lie on both sides. binding response (% of control), % at 10 µM. hit rate 0.38% among 220,000. AID 1441;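 active means below 25% or above 175%, edge rows of some plates excepted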;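 further: Galphao activated by GDP with aluminum fluoride before binding; 100% = wells without compound and 0% = beads without RGS; some results beyond the cut were filed as inactive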
Target sequence (O15492 whole entry, looked up): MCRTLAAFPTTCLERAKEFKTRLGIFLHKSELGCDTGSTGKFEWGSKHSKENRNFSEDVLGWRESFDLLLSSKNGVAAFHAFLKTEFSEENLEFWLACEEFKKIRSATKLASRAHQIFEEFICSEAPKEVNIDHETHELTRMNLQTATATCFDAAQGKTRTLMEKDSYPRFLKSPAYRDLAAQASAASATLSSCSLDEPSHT
Target sequence (P09471 whole entry, looked up): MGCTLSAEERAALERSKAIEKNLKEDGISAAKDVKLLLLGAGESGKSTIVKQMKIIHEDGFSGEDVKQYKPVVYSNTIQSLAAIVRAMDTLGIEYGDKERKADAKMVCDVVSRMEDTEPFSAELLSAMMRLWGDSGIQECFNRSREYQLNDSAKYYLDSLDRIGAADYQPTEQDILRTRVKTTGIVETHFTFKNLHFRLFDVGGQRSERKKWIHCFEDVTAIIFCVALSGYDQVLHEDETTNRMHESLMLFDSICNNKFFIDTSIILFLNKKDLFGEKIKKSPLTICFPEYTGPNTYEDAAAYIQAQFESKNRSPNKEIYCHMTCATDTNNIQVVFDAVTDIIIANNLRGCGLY
Insulin prom inh cell count – second read-out of Insulin prom inh, no call of its own (marks repeat the call); normalized cell count, %; measured here: cell count, toxicity; reference of the scale not given here;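 cells exposed to compound for 48 h; stained nuclei by imaging scaled within each plate; lower means fewer cells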
HSV replic up primary fold – recorded beside HSV replic up, whose call it bears; fold increase; compound at 10 µM; measured here: primary screen fold increase 10 uM; tested in PC3 cells;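 GFP signal in the first replicate; 1 = infected wells without compound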
The depositor's hits bear a star; i = inactive; ? = inconclusive; nt = not tested or not shown.

Below each compound: Insulin prom inh	Insulin prom inh cell count	GALR2 agonist	HSV replic up	HSV replic up primary fold	PKD1 inh	RGS16-Gao
- CN=C1SC(CC(=O)NCCc2ccc(OC)c(OC)c2)C(=O)N1C (centres undefined)
  nt	nt	-1.3	i	1.2	-5	106
- COC(=O)C(F)(Sc1c(C)n(C)n(-c2ccccc2)c1=O)C(F)(F)F (centres undefined)
  16	122	0.9	i	1.1	3	106
- COc1ccc(CCNC(=O)CC2SC(=NCc3ccccc3)NC2=O)cc1 (centres undefined)
  nt	nt	nt	i	1	-5	100
- CCOc1ccc(Nc2cc(C)nc(N3CCOCC3)n2)cc1
  nt	nt	-1.5	i	0.76	-2	103
- Cc1cc(C)c2c(c1)OC(O)(C(F)F)CC2=O (centres undefined)
  nt	nt	-4.1	i	0.96	-1	105
- COc1ccc(C2NS(=O)(=O)N=C2N)cc1 (centres undefined)
  64	86	nt	i	0.8	7	103
- O=C(CC1Nc2ccccc2NC1=O)NCCc1ccccc1 (centres undefined)
  3	239	0.6	i	1.1	1	102
- Cc1cc(NC(=O)C(C)SCC(=O)O)no1 (centres undefined)
  -25	100	nt	i	1	-6	117
- Fc1ccc(-n2cc(-c3ccccc3)c3c(N4CCOCC4)ncnc32)cc1
  -93	171	nt	i	0.75	-6	102
- COCc1cc(C)nc(N2CCNCC2)c1C#N
  -8	103	-0.2	i	1.1	-6	103
- CCCCNC(=O)C1CCCN1S(=O)(=O)c1cccc2nsnc12 (centres undefined)
  nt	nt	nt	i	1	nt	102
- CC(C)(C)c1cc(C(=O)NNS(=O)(=O)c2ccccc2)n[nH]1
  nt	nt	nt	i	0.69	nt	100
- COc1ccc(C(=O)C2CCCN(Cc3nc4ccccc4nc3C)C2)cc1OC (centres undefined)
  nt	nt	nt	i	1	-2	104
- O=C(NCCc1ccncc1)Nc1ccc(Cl)cc1
  -158	90	-1.8	i	0.99	-4	98
- CCc1nc(CN2CCN(Cc3ccc(F)c(F)c3)C(CCO)C2)c(C)[nH]1 (centres undefined)
  nt	nt	nt	i	1	-1	100
- Cc1ccc(S(=O)(=O)N2CCCCC2)cc1NC(=O)COC(=O)Cc1cccc2ccccc12
  -94	153	-2.1	i	0.87	-4	99
- CCc1ccc(N2C(=O)C(Cl)=C(N3CCOCC3)C2=O)cc1
  10	76	-0.4	i	0.86	-4	105
- Cn1cccc1C(=O)C(=O)Nc1cc(Cl)cc(Cl)c1
  6	97	-0.8	i	0.82	-10	105
- Cc1cc(C)cc(OCC(=O)NNC(=O)c2cc3ccccc3o2)c1
  -83	99	0.0	i	0.97	0	106
- CC(=O)Nc1ccc(S(=O)(=O)NCC2CCC(C(=O)NCCCN3CCCC3=O)CC2)cc1 (centres undefined)
  0	117	-0.8	i	0.96	-7	100

Reformatted as labelled records: entries from further up
COc1ccc(C(=O)C2CCCN(Cc3nc4ccccc4nc3C)C2)cc1OC (centres undefined)
  Insulin prom inh: nt	Insulin prom inh cell count: nt	GALR2 agonist: nt	HSV replic up: i	HSV replic up primary fold: 1	PKD1 inh: -2	RGS16-Gao: 104
O=C(NCCc1ccncc1)Nc1ccc(Cl)cc1
  Insulin prom inh: -158	Insulin prom inh cell count: 90	GALR2 agonist: -1.8	HSV replic up: i	HSV replic up primary fold: 0.99	PKD1 inh: -4	RGS16-Gao: 98
CCc1nc(CN2CCN(Cc3ccc(F)c(F)c3)C(CCO)C2)c(C)[nH]1 (centres undefined)
  Insulin prom inh: nt	Insulin prom inh cell count: nt	GALR2 agonist: nt	HSV replic up: i	HSV replic up primary fold: 1	PKD1 inh: -1	RGS16-Gao: 100
Cc1ccc(S(=O)(=O)N2CCCCC2)cc1NC(=O)COC(=O)Cc1cccc2ccccc12
  Insulin prom inh: -94	Insulin prom inh cell count: 153	GALR2 agonist: -2.1	HSV replic up: i	HSV replic up primary fold: 0.87	PKD1 inh: -4	RGS16-Gao: 99

Additional results.
Below each compound: Insulin prom inh	Insulin prom inh cell count	GALR2 agonist	HSV replic up	HSV replic up primary fold	PKD1 inh	RGS16-Gao
- COc1ccc2nc(NC(=O)CSc3nc(C)cc(=O)[nH]3)sc2c1
  5	96	-0.6	i	0.86	-10	105
- O=C(O)c1cc(NC(=S)NC(=O)C(c2ccccc2)c2ccccc2)ccc1Cl
  21	131	nt	i	0.96	2	102
- CCOC(=O)c1[nH]c(C)c(C(=O)N2CCN(c3ccccc3OC)CC2)c1C
  -42	86	nt	i	0.72	0	111
- COc1ccc(-c2sc(NC(C)=O)nc2-c2ccccc2)cc1
  8	122	-0.2	i	0.95	-22	102
- CCN1CCN(Cc2ccc(NC(=O)c3cc(NC(=O)c4cnn(-c5ccccc5)c4N)cc(OC)c3)cc2C(F)(F)F)CC1
  nt	nt	nt	i	0.59	nt	99
- Cc1ccc(NC(=O)C2CCCN(C(=O)c3ccc(Cl)cc3)C2)c(C)c1 (centres undefined)
  -8	145	nt	i	1	-5	102
- Cc1cc(C)c(NC(=O)CSc2nc3ccc(NC(=O)CSc4nnnn4-c4ccccc4)cc3s2)c(C)c1
  -11	89	-1.0	i	0.91	-12	101
- COCCNS(=O)(=O)c1ccc(C)c(C)c1C
  -37	138	nt	i	1.2	3	99
- COc1ccc(OCc2nnc(SCC(=O)c3c(N)n(C)c(=O)n(C)c3=O)n2-c2ccccc2F)cc1
  nt	nt	nt	i	0.99	-2	100
- COc1cccc(CNC(=O)C2CCCN(S(=O)(=O)c3cccc4nonc34)C2)c1 (centres undefined)
  -37	82	-0.6	i	0.69	1	88
- O=C(O)c1ccc2c(c1)NC(=O)C(N1CCCC1)S2 (centres undefined)
  nt	nt	-1.8	i	0.88	-16	100
- CC(=O)Nc1nc(S(=O)(=O)c2ccc(C)cc2)c(Cl)s1
  17	64	-0.5	i	1.1	-1	95
- O/N=C/C1=C(Cl)c2ccccc2CC1
  7	120	nt	i	0.86	-6	94
- N#Cc1c(-c2ccccc2)nc(SCC(=O)Nc2ccccc2)[nH]c1=O
  53	104	0.0	i	0.98	-5	101
- CC(=O)Nc1ccc(NC(=O)C(C)Oc2ccccc2F)cc1 (centres undefined)
  -13	117	-3.9	i	0.81	-5	99
- COC(=O)N/N=C/c1ccc([N+](=O)[O-])s1
  -21	96	0.0	i	0.88	-2	38
- CCOc1ccc(NC(=O)Cn2nnc(-c3ccccc3NC(=O)c3cccs3)n2)cc1
  13	106	-1.2	i	0.79	5	113
- O=[N+]([O-])c1ccc(N2CCCC2)nc1
  nt	nt	nt	i	1	nt	108
- O=C(COc1ccccc1Cl)NCc1ccncc1
  nt	nt	-2.1	i	0.83	-10	106
- O=C(Nc1ccc(F)c(F)c1)c1cnc(-c2ccccc2)nc1-c1ccccc1
  nt	nt	-0.9	i	0.86	-12	106
- Cc1ccc(CSc2nnc(NC(=O)Cn3cnc4ccccc4c3=O)s2)cc1
  nt	nt	nt	i	0.93	-7	106
- CCn1c(=O)c(C(=O)NCCN2CCCCC2)c(O)c2ccccc21
  nt	nt	-3.9	i	1	-7	53
- Cc1nc2sc(C(c3cccs3)N3CCN(c4ccccc4)CC3)c(O)n2n1 (centres undefined)
  -30	116	-1.1	i	0.83	-1	nt
- Cc1ccc(NC(=O)CSc2nnc(-c3cccs3)o2)cc1S(=O)(=O)N1CCCCC1
  14	118	-2.5	i	0.75	1	101
- O=C(COC(=O)c1ccc(S(=O)(=O)NCc2ccco2)cc1)Nc1ccc(OC(F)F)cc1
  0	39	-0.4	?	nt	3	101
- COc1cccc(N2CCN(Cc3nc4scc(-c5ccccc5)c4c(=O)[nH]3)CC2)c1
  nt	nt	0.2	nt	nt	-6	102
- Nc1ccc2oc(-c3ccc4nc[nH]c4c3)nc2c1
  8	119	-1.8	i	0.83	-4	101
- CS(=O)(=O)NCCSCc1ccco1
  11	128	0.8	i	0.94	-9	102
- Cc1oc(-c2ccc(Cl)cc2)nc1CN1CCCC(C(=O)NCc2cccnc2)C1 (centres undefined)
  nt	nt	-1.4	i	0.88	-4	97
- C=CCc1cccc(CNc2ccc(Br)cc2)c1O
  nt	nt	nt	i	1	-1	100
- COCCOC(=O)C1=C(C)Nc2ncnn2C1c1ccccc1 (centres undefined)
  nt	nt	-0.2	i	0.86	6	96
- CC12CCC(C(=O)NCc3ccccc3Cl)(C(Br)C1=O)C2(C)C (centres undefined)
  -10	100	-0.5	i	0.87	1	58
- O=c1c2ccccc2nc(SCc2cccc(F)c2)n1C1CCCC1
  nt	nt	0.8	i	1	-4	100
- COc1ccc(N2CCN(CC(=O)Nc3nc4c(s3)CC(C)CC4)CC2)cc1 (centres undefined)
  nt	nt	-0.8	i	0.85	-13	98
- c1ccc2[nH]c(CN3CCOCC3)nc2c1
  3	156	-2.6	i	0.66	-4	100
- Cc1nn(Cc2ccccc2)c(C)c1NC(=O)CSc1n[nH]c(C)c1[N+](=O)[O-]
  -13	129	-2.5	i	0.96	8	114
- O=C(Nc1ccc(Cl)cc1)N1CCOC12CCCCC2
  nt	nt	nt	i	0.9	-5	101
- CCn1c(SCC(=O)Nc2nccs2)nnc1-c1ccncc1
  -3	143	-0.5	i	1	2	94
- Cc1ccc(C(=O)NCCNc2ccc(Cl)cc2[N+](=O)[O-])o1
  nt	nt	-1.7	i	0.94	4	101
- Cn1c(NC(=O)c2ccc(Br)o2)cc(=O)n(C)c1=O
  45	71	-4.2	i	0.98	-7	98

(cont.)
molecule | Insulin prom inh | Insulin prom inh cell count | GALR2 agonist | HSV replic up | HSV replic up primary fold | PKD1 inh | RGS16-Gao
COc1nc(NCCc2ccc(OC)c(OC)c2)nc(NC(C)(C)CO)n1 | 60 | 86 | -2.4 | i | 0.93 | -2 | 103
COC(=O)C1=C(C)N(CC2CCCO2)C(=O)/C1=C\c1ccc(O)cc1 (centres undefined) | 38 | 68 | -2.2 | i | 0.97 | 11 | 102
CC1CCN(Cc2ccc(-c3nn[nH]n3)cc2)CC1 | 31 | 129 | 0.0 | i | 0.95 | -2 | 107
Cc1cc2oc(=O)cc(CN3CCOCC3)c2cc1C | -47 | 98 | -1.2 | i | 1.1 | 4 | 104
CCOc1cc(/C=N/N=C2/NC(=O)C(CC(=O)O)S2)ccc1OS(=O)(=O)c1ccc(C)cc1 (centres undefined) | 27 | 65 | nt | i | 0.94 | -2 | 108
O=C1OC(Nc2nc3ccccc3s2)c2ccccc21 (centres undefined) | -10 | 97 | -1.7 | i | 1 | 3 | 106
Cc1ccc2nc3c(cc(C(N)=S)c(=N)n3CCCOC(C)C)c(=O)n2c1 | -24 | 69 | 2.9 | i | 1 | 9 | 97
Cn1c(=O)c2c(ncn2CC(=O)NC(C)(C)C)n(C)c1=O | nt | nt | -4.4 | i | 1 | -3 | 94
CCOc1ccc2[nH]c(=O)c(CN(CCc3ccccc3)C(=O)c3cnccn3)cc2c1 | 0 | 120 | -1.1 | i | 1 | 1 | 103
COC(=O)c1c(C(=O)OC)c(-c2ccccc2)n2c1CS(=O)C2 (centres undefined) | -13 | 85 | -2.7 | i | 0.95 | -7 | 99
OC1(c2ccccc2F)CCN(Cc2nnnn2Cc2ccc(F)cc2)CC1 | nt | nt | nt | i | 0.98 | -8 | 112
CCCCOn1c(C)c(C(=O)OCC)c2c3nonc3ccc21 | 43 | 61 | 0.2 | i | 0.91 | -4 | nt
Cc1ccc(CCC(=O)Nc2ncc(Cc3cccc(Cl)c3Cl)s2)o1 | nt | nt | 2.4 | ? | nt | 0 | 76
COc1cc(C(=O)Oc2cc(C)[nH]c(=O)c2[N+](=O)[O-])cc(OC)c1OC | 41 | 74 | -1.1 | nt | nt | -1 | 108
CCNc1nc(NCC)nc(OCCOC(=O)COc2ccc(Cl)cc2Cl)n1 | -25 | 92 | 0.0 | i | 0.98 | -4 | 80
Cc1nc2ccccc2c2nc(N)nn12 | 3 | 80 | -1.4 | i | 1 | -3 | 105
Cc1cccc(-c2n[nH]c(=S)n2/N=C/c2cccs2)c1 | nt | nt | nt | i | 1.3 | nt | 103
C#CC[N+]1(CC#Cc2ccccc2)CCCC1 | 0 | 143 | -1.3 | i | 1.1 | -5 | 127

A different layout for part of the listing above.
COC(=O)C(F)(Sc1c(C)n(C)n(-c2ccccc2)c1=O)C(F)(F)F (centres undefined)
- Insulin prom inh: 16
- Insulin prom inh cell count: 122
- GALR2 agonist: 0.9
- HSV replic up: i
- HSV replic up primary fold: 1.1
- PKD1 inh: 3
- RGS16-Gao: 106
COc1ccc(CCNC(=O)CC2SC(=NCc3ccccc3)NC2=O)cc1 (centres undefined)
- Insulin prom inh: nt
- Insulin prom inh cell count: nt
- GALR2 agonist: nt
- HSV replic up: i
- HSV replic up primary fold: 1
- PKD1 inh: -5
- RGS16-Gao: 100
CCOc1ccc(Nc2cc(C)nc(N3CCOCC3)n2)cc1
- Insulin prom inh: nt
- Insulin prom inh cell count: nt
- GALR2 agonist: -1.5
- HSV replic up: i
- HSV replic up primary fold: 0.76
- PKD1 inh: -2
- RGS16-Gao: 103

From PubChem BioAssay
